Screening results (PubChem)
D2 potentiator = potentiates the human D2 dopamine receptor allosterically; DiscoveRx D2 beta-arrestin cells, luminescence, 90 min; 100% = 57 uM dopamine signal; potentiation, % (concentration not given with the values); 0.23% of 360,000 active; active = potentiation of 50% or more; inconclusive = 30% to 50%; inactive = 30% or less;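 also: compound concentration not given in the record; tested on top of an EC20 dose of dopamine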
Target sequence (P14416 whole entry, looked up): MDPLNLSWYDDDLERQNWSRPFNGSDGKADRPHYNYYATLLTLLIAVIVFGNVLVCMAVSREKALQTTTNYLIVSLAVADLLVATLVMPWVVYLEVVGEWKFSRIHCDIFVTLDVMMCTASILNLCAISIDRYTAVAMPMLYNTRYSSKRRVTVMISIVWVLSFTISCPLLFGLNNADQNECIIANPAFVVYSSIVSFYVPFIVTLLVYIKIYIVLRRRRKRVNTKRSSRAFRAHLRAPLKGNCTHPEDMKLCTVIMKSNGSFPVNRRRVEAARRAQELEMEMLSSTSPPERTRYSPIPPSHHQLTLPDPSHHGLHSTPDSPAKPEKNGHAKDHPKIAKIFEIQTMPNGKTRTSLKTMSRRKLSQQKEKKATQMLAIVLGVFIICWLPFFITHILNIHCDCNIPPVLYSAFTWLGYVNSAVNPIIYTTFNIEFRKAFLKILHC
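PathHunter beta-arrestin assay in DiscoveRx D2 cells. Compounds were added with an EC20 of dopamine (50 nM final) for 90 min at 37 deg C. Luminescence was read 1 h after detection reagent, with 57 uM dopamine as the EC100 control.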
CtBP-E1A blk = CtBP/E1A binding inhibition. AlphaScreen GST-E1A/His-CtBP binding, 1536-well; active compounds read low; control for the full effect not named in the record. 0.49% of 340,000 active. AID 651724. activity change, % (no concentration beside the values); in the data active means activity change below about -65%; inconclusive means about -30% to -65%; inactive means above about -30%; also: % is scaled to controls: 0 for no effect and ±100 for the full control effect
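In 5 uL wells, 23 nL compound meets equimolar GST-E1A and His-CtBP (5X stock 125 nM each) for 2 h, 37 °C. Beads (5X, 50 ug/mL) then 1 h, 37 °C, dark.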
gsp antagonist = gsp mutant antagonism. AID 624288. Potency, µM (series often up to 76.9 µM), for inactives: at the top dose activity change, negative = inhibition, most hits filed as inhibitors. 0.4% of 340,000 active. gsp-mutant cells, cAMP HTRF, 30 min; control for the full effect not named in the record; active = falling curve of any shape with a large fitted effect; inconclusive = falling curve, mostly with a smaller effect; inactive = flat or rising curve; cell line not stated here;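 also: intracellular cAMP measured with PDE inhibitor Ro 20-1724 present during compound exposure; potency is read from the fitted curve at half-maximal effect; % is scaled to controls: 0 for no effect and ±100 for the full control effect; nearly all actives have a fitted effect of over 65% in size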
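Cells in G418 medium, seeded 16-24 h, 37C; buffer exchange to DPBS + 1 mM CaCl2, 0.5 mM MgCl2, 0.05% BSA; cpds in DMSO + […] (300 uM stock), 30 min 37C; HTRF cAMP detection.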
Six1-Eya2 blk = blocks human Six1 binding to Eya2 | AlphaScreen GST-Six1/His-Eya2 binding, biochemical; active compounds read low; control for the full effect not named in the record | activity change, % (no concentration beside the values) | 0.56% of 360,000 active | AID 651725; in the data active = activity change below about -65%; inconclusive = about -30% to -65%; inactive = above about -30%; also: % is scaled to controls: 0 for no effect and ±100 for the full control effect
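Homogeneous AlphaScreen proximity assay pairing GST-Six1 with His-tagged Eya2 (added as 5X mix: 250 nM and 500 nM) in 50 mM Tris pH 8.0, 300 mM NaCl, 1 mM TCEP. Glutathione donor and nickel acceptor beads; 1 h, 37 °C, dark.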
D2 ag = agonists of human D2 dopamine receptor (beta-arrestin); DiscoveRx PathHunter D2 beta-arrestin, luminescence, 90 min; 100% = 57 uM dopamine signal; activation, % (no concentration beside the values); 0.084% of 360,000 active; AID 624465; in the data active = activation above about 40%; inconclusive = about 15% to 40%; inactive = below about 15%; also: compound concentration not given in the record; the text of the record calls up to 30% inactive
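Agonist mode: compounds alone added to overnight-plated D2 PathHunter cells for 90 min at 37 C, with 57 uM final dopamine (EC100) defining full response. Beta-arrestin recruitment detected by chemiluminescent reagent, read after 1 h at ambient temperature.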
gsp agonist = gsp mutant agonism; AID 624287; gsp mutant cells, cAMP HTRF, 30 min; control for the full effect not named in the record; 0.13% of 340,000 active; Potency, µM (doses to about 76.9 µM), inactives show at the highest dose activation (cAMP increase), actives largely listed as activators; active = well fitted activation curve with a large enough effect; inconclusive = small, poorly fitted or top-dose-only effect, or another doubt; inactive = no such curve, though single readings can be large or run the other way; cell line not stated here;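 also: phosphodiesterase inhibitor Ro 20-1724 added with compounds to block cAMP breakdown; potency is read from the fitted curve at half-maximal effect; nearly all actives have a fitted effect of over 60% in size; about a fifth of the inactives were tested at one dose only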
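Cells in DMEM/10% FBS with G418 were pretreated with compounds in DMSO plus […] (300 uM stock) for 30 min at 37C. cAMP was measured by HTRF (cAMP-d2 plus anti-cAMP antibody-K) after 30 min at room temperature.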
Starred values were filed as active, the others as inactive; ? = inconclusive; . = not tested or not shown; [ ] = remark or other dose. Rows were taken by chance; any-hit rate near 1.4%.

SMILES	D2 potentiator	CtBP-E1A blk	gsp antagonist	Six1-Eya2 blk	D2 ag	gsp agonist
CCC1C(=O)NCCN1C(=O)c1ccc2nc(Cc3cccc(Cl)c3)oc2c1 (centres undefined)	26.3	3.5	-3.7%	-0.5	-0.2	27.6%[15.4 µM]
c1ccc2c(c1)nc1n2C2(N3CCOCC3)CCCC2C1N1CCOCC1 (centres undefined)	7.9	6.6	14.4%	-1.6	-2.3	-7.1%
CCOc1cc(C(=O)OCc2cccc(OC)c2OC)ccc1OCC(=O)N1CCOCC1	?	-16.6	-9.0%	-11.0	14.5	-107.1%[15.4 µM]
COc1ccc(NC(=O)c2cc(-c3ccccn3)nc3c(C)cc(C)cc23)c(C)c1	-16.3	6.3	1.1%	-1.4	-5.4	-57.7%[inhibitor]
Cc1ccc(NC(=S)N(Cc2cccs2)Cc2cc3cc(C)ccc3[nH]c2=O)cc1	-13.6	0.7	8.1%	2.3	1.0	-11.0%
CCn1c(C)cc(/C=C2/NC(=O)N(c3ccccc3)C2=O)c1C	-2.5	-5.0	-1.5%	-6.3	-3.1	-3.2%
CN(C)S(=O)(=O)c1ccc(S(=O)(=O)N2CCCC(C(=O)NC3CC3)C2)cc1 (centres undefined)	-5.3	3.8	-22.6%	9.0	-4.3	14.6%[15.4 µM]
CC(=O)Nc1ccc(/C(C)=N/Nc2nc(Nc3cccc4ccccc34)nc(N3CCOCC3)n2)cc1	-5.9	-12.8	-29.6%	-12.7	-0.8	6.8%
O=c1cc(-c2ccccc2Cl)oc2c(NS(=O)(=O)c3cccc4nsnc34)ccc(O)c12	-14.3	?	-12.9%	-8.4	-4.4	-34.4%[inhibitor]
CC[n+]1c(/C=C(\C)Nc2ccccc2)sc2ccccc21	-14.6	1.0	-1.6%	-22.7	-6.0	-7.9%[15.4 µM]
CC(=O)c1ccc(NC2OC(CO)C(O)C(O)C2O)cc1 (centres undefined)	4.8	0.5	1.1%	-0.3	-5.7	-1.7%
CC(=O)N1CCN(S(=O)(=O)c2cccc(C(=O)Nc3ccc(OC(F)F)cc3)c2)CC1	-10.2	19.0	.	-5.0	5.5	-27.7%[15.4 µM]
CC(C)NC(=O)c1cc(-n2cnnc2)ccc1Cl	3.1	0.1	-0.7%	-1.1	-0.9	-31.0%[inhibitor]
COC(=O)c1ccc(NC(=O)CCCN2C(=O)NC(C)(C)C2=O)cc1	-3.0	-16.7	13.6%	6.3	-0.7	-24.7%[15.4 µM]
COc1ccc(CN2CC(C(=O)NCCN3CCOCC3)CC2=O)cc1 (centres undefined)	2.0	-1.9	2.1%	8.3	4.7	?
O=C(N/N=C1/CCc2ccccc21)C1CC1	-3.0	-1.3	4.6%	-0.5	-1.3	-5.0%[15.4 µM]
O=C1C2C3C=CC(C3)C2C(=O)N1c1ncc([N+](=O)[O-])s1 (centres undefined)	0.4	-17.9	5.4%	-16.2	-1.1	-8.7%
Cn1c(=O)oc2cc(S(=O)(=O)NCCCN3CCCC3=O)ccc21	-2.4	4.4	13.5%	-1.7	-5.0	18.5%
CCCCNC(=O)C1(C)CCN1C(=O)Cc1ccc(OC)cc1 (centres undefined)	-0.1	8.8	.	1.0	-3.1	.
CN(C)CCCn1c(=O)n(CCc2ccccc2)c(=O)c2c3c(sc21)CCCCC3	-20.7	.	7.6%	-1.2	-5.2	20.6%
COc1cc2c(cc1OC)[C@@H](NC(=O)Cc1ccc(F)cc1)[C@H](OCc1ccccc1)C2	-7.0	-8.1	-9.3%	-5.5	-1.0	.
Cc1nc2c(O)c3c(c(O)c2nc1C)C1C=CC3CC1	?	7.0	-18.7%	-2.8	?	-4.8%
COc1ccc(NC(=O)CSc2nc(=O)n(CCN3CCOCC3)c3c2CCCC3)c(OC)c1	-15.7	-1.2	-4.6%	0.6	-0.7	3.2%
Cc1nc2ccccn2c1C(=O)N/N=C/c1ccc([N+](=O)[O-])o1	-25.8	.	-18.6%	?	-1.9	?
CCCCC(=O)Nc1ccc(NC(=O)C2CC2)cn1	-17.8	1.4	14.2%	-0.1	-3.6	-20.3%
CC(C)CC(=O)Nc1cc2c3c(c1)CCN3C(=O)CC2	-8.0	.	-6.0%	5.8	-4.4	-4.1%
Cc1cc2c(c(=O)o1)C(C1C=CCCC1)C(C#N)=C(N)O2 (centres undefined)	4.5	-10.4	-0.5%	1.3	0.9	?
Cc1nc2sc(C(c3ccco3)N3CCc4ccccc4C3)c(O)n2n1 (centres undefined)	-12.4	-9.4	-12.4%	-5.7	-1.3	-6.0%
CCOC(=O)c1sc2nc(SC)nc(-c3ccc(Cl)cc3)c2c1N	4.2	7.0	13.8%	8.5	0.0	16.3%
COC(=O)CN1C(=O)C2(C(C#N)=C(N)Oc3c2c(C)nn3-c2ccccc2)c2ccccc21 (centres undefined)	?	-4.9	-3.7%	-2.7	1.0	-4.4%
CCC(NS(=O)(=O)c1ccc(OC)cc1)C(=O)O (centres undefined)	-0.4	3.3	-1.2%	3.8	-1.0	-18.1%
CN(CC(=O)NCc1ccccc1)S(=O)(=O)c1cnc[nH]1	-20.0	3.2	8.8%	2.3	-1.4	-3.2%
CC1CCCCN1C(=O)c1cc(-c2ccc(Cl)c(Cl)c2)on1 (centres undefined)	-24.9	-8.1	?	-3.1	-5.2	-27.1%
O=C(Nc1cccc2[nH]ncc12)NS(=O)(=O)c1ccccc1	-3.7	.	-10.4%	-13.2	7.6	-21.1%
O=c1c2cc(Br)ccc2nc(-c2ccc([N+](=O)[O-])cc2)n1O	-3.4	15.5	-4.8%	10.4	2.9	51.6%[15.4 µM]
CCOC(=O)c1c(C)[nH]c(C)c1C(=O)CSc1nc2ccccc2[nH]1	-13.3	13.2	-12.5%	-18.0	9.2	15.7%
Cc1ccc(F)c(NC=C2C(=O)OC(C)(C)OC2=O)c1	-2.7	4.5	3.8%	5.2	0.7	4.5%
O=P(O)(COc1ccccc1)COc1ccccc1	-5.6	5.3	9.8%	3.4	-0.1	-22.5%
COc1ccc(NS(=O)(=O)c2c(C)cc(C)cc2C)cc1	10.8	2.5	?	8.1	-1.2	-25.6%
CC(C)Oc1ccc(S(=O)(=O)N2CCCCC2)cc1NC(=O)C1CCCC1	-1.7	-11.7	-12.2%	-2.4	0.1	-16.0%

One compound at a time (already shown). Values in the order: D2 potentiator	CtBP-E1A blk	gsp antagonist	Six1-Eya2 blk	D2 ag	gsp agonist
Shown for O=P(O)(COc1ccccc1)COc1ccccc1 = -5.6	5.3	9.8%	3.4	-0.1	-22.5%
Shown for Cc1ccc(F)c(NC=C2C(=O)OC(C)(C)OC2=O)c1 = -2.7	4.5	3.8%	5.2	0.7	4.5%
Shown for CC(C)CC(=O)Nc1cc2c3c(c1)CCN3C(=O)CC2 = -8.0	.	-6.0%	5.8	-4.4	-4.1%
Shown for CCC(NS(=O)(=O)c1ccc(OC)cc1)C(=O)O (centres undefined) = -0.4	3.3	-1.2%	3.8	-1.0	-18.1%

Remaining list, next part:
SMILES	D2 potentiator	CtBP-E1A blk	gsp antagonist	Six1-Eya2 blk	D2 ag	gsp agonist
COc1cccc(-c2cc(C(=O)Nc3cnn(Cc4ccccc4C)c3)no2)c1	-0.4	5.3	-3.1%	-1.4	-1.0	4.8%
Cc1cc(CSc2nc(C)cc(=O)[nH]2)c2ncccc2c1	-4.5	-5.7	-8.1%	-17.3	1.1	12.5%[15.4 µM]
Cc1cccc(-c2noc(CNC(=O)COc3ccccc3C)n2)c1	5.9	-6.4	-3.2%	-3.2	2.8	9.1%
Cc1nn(CCc2n[nH]c(=S)n2-c2ccc(F)c(Cl)c2)c(C)c1[N+](=O)[O-]	-11.7	-0.6	-12.0%	1.0	1.1	-15.0%
S=C(Nc1ccc(Cl)cc1Cl)N1CCOCC1	-0.6	-3.7	5.9%	8.7	0.6	-23.9%
COCCn1c(N)c(N(Cc2ccccc2)C(=O)C2CCCC2)c(=O)[nH]c1=O	0.2	9.0	7.6%	4.4	7.1	-1.3%[15.4 µM]
Cc1ccc(C(=O)CCCn2nnc(-c3cccnc3)n2)cc1C	-0.2	9.0	-13.3%	0.4	-0.4	-38.8%[inhibitor]
CNC(=O)c1ccc(NC(=O)Cc2ccc(S(=O)(=O)N3CCOCC3)s2)cc1	0.4	0.3	8.8%	-14.4	-4.6	5.5%[15.4 µM]
Cc1ccc(NC(=O)CCCn2c(=S)[nH]c3ccsc3c2=O)cc1C	-9.2	-12.9	-21.4%	-7.9	0.3	6.8%
CNc1ccc(Cl)nn1	-5.4	-1.8	-12.6%	4.3	-4.3	-1.1%
O=C(CN1CCN(S(=O)(=O)N2CCCCCC2)CC1)Nc1ccc(Br)cc1	9.1	2.4	-5.1%	-4.2	-0.7	-0.5%
CCn1c(SCC(=O)Nc2oc(-c3ccccc3)c(-c3ccccc3)c2C#N)nnc1-c1ccncc1	16.5	-9.0	?	-2.4	-0.5	7.5%
COc1cc2cc(C)c(SCC(=O)N3CCOCC3)nc2cc1OC	-4.4	-6.7	0.3%	-6.5	0.2	17.1%
COc1ccccc1CSc1nc2c(c(=O)n(C)c(=O)n2C)n1C	-4.9	4.2	0.8%	-1.5	-1.9	?
O=S(=O)(c1ccc(Br)cc1)N1CCN(c2ccc3nnc(-c4ccccc4)n3n2)CC1	-8.3	3.3	-17.9%	-2.4	-2.4	11.0%
COc1cc(C(=O)Nc2ccc(F)cc2Cl)ccc1OCC(=O)N1CCOCC1	1.2	-1.0	8.3%	1.7	-1.0	-8.3%[15.4 µM]
COc1ccc(C(=O)NNC(=O)C2CCN(S(=O)(=O)c3ccc(C)cc3)CC2)cc1	-2.2	0.6	-3.6%	-0.6	-1.0	-35.9%[inhibitor]
C=CCn1c(SCc2nnc(-c3ccccc3)o2)nnc1C(O)c1ccccc1 (centres undefined)	-5.9	4.3	5.8%	4.0	-2.4	-16.2%
CN1CCN(C(=O)/C(=C/c2cn(S(=O)(=O)N(C)C)c3ccccc23)NC(=O)c2ccccc2Cl)CC1	-2.7	0.0	-12.7%	19.1	3.0	8.3%
O=C(c1cccn2c(=O)c3ccc(Cl)cc3nc12)N1CCN(Cc2ccc3c(c2)OCO3)CC1	-3.9	3.5	2.4%	7.1	-1.8	15.0%
COc1ccc(CCNS(=O)(=O)c2ccc(F)cc2)cc1OC	10.7	-3.8	-2.0%	2.1	1.3	-62.3%[inhibitor]
CCN(CC(=O)NC(=O)NC1CCCCC1)Cc1ccccc1	-2.8	-20.9	4.0%	8.5	-4.3	0.1%[15.4 µM]
COc1ccc(CNC(=O)COC(=O)CCCOc2ccc(Cl)cc2Cl)cc1OC	-0.3	8.8	-5.9%	3.7	1.5	26.5%
COc1ccc(OC(C)C(=O)NCCc2nc3ccccc3[nH]2)cc1 (centres undefined)	-16.5	25.6	9.9%	1.1	-0.6	-4.9%
